Screens (PubChem)
Rango dissoc inh: qHTS Assay for Inhibitors of RanGTP induced Rango (Ran-regulated importin-beta cargo) - Importin beta complex dissociation; 340,000 tested, 0.071% active; Potency, µM (highest dose often 46.1 µM), for inactives: at the top dose activity change, negative = inhibition; Snurportin-1 (Homo sapiens) + GTP-binding nuclear protein Ran (Homo sapiens) + Importin …; Biochemical FRET Rango-importin beta, RanGTP-induced dissociation; AID 540253, 2011; active means falling FRET ratio curve, often poorly fitted, with flat reads before Ran was added; inconclusive means other falling curves, or compound fluorescence or quenching; inactive means flat or rising ratio curve;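 further: potency means the concentration at half of the fitted maximal effect; % of control where 0% means no effect; nearly all actives have a fitted effect of over 45% in size; -100% = wells without RanGTP and RCC1; the record marks most hits as doubtful in a second field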
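Rango FRET biosensor (snurportin-1 IBB flanked by N-terminal EYFP and C-terminal CFP10) at 0.1 uM, with 0.25 uM importin beta in PBS, 1mM DTT, 0.02% Tween-20, 0.1% BSA. 0.6 uM Ran, 2mM GTP and 0.2 uM RCC1 were then added for 45 min at room temperature. Inhibition read as loss of FRET rise.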
GLA inh pH 4.5: qHTS Assay for Inhibitors of Human alpha-Galactosidase at pH 4.5 | activity change, negative = inhibition, % at 105 µM | 230,000 tested, under 10 active | purified enzyme, 4-MU-alpha-Gal fluorescence, pH 4.5 | Alpha-galactosidase A (Homo sapiens), P06280; inconclusive = small, poorly fitted or top-dose-only inhibition, or a rising curve; inactive = flat fitted curve, though single readings scatter; no compound was filed as active;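 further: 0% = full activity with enzyme and -100% = basal without enzyme; dose as in the result columns while the protocol names 77 µM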
Rango complex inh: qHTS Assay for Inhibitors of Rango (Ran-regulated importin-beta cargo) - Importin beta complex formation | Potency, µM (top dose mostly 92.2 µM), for inactives: top-dose inhibition of complex formation | AID 540263, 2011 | Rango CFP/YFP FRET sensor + importin beta, 45 min | 340,000 tested, 0.031% active | Importin subunit beta-1 (Homo sapiens), Q14974; active = rising FRET ratio curve, often small or poorly fitted; inconclusive = mostly compound fluorescence or quenching in the first reads; inactive = flat curves in all reads;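 further: potency means the concentration at half of the fitted maximal effect; 0% = DMSO wells and 100% = buffer wells lacking importin beta; nearly all actives have a fitted effect of over 15% in size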
Target sequence (Q14974 whole entry, looked up): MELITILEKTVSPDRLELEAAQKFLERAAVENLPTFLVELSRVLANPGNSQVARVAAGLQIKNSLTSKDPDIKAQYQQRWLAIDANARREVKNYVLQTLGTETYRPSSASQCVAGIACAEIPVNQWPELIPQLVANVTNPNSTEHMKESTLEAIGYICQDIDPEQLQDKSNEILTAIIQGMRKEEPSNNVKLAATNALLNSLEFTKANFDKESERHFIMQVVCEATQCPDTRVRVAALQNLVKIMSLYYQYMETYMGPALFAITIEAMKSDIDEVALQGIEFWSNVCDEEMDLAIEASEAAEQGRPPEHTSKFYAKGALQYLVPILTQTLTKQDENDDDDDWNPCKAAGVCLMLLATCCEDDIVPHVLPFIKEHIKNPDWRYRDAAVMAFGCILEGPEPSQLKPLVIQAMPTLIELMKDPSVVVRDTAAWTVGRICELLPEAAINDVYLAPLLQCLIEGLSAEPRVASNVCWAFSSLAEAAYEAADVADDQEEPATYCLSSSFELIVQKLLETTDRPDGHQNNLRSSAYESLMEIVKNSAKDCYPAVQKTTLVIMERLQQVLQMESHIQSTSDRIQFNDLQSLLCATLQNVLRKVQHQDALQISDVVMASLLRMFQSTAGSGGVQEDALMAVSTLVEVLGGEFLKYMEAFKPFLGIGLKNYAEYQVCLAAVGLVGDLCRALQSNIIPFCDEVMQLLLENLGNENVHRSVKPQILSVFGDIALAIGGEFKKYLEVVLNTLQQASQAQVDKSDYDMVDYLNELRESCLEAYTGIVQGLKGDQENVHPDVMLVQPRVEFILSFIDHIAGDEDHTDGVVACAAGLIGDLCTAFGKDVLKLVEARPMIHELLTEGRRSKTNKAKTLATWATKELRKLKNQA
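FRET biosensor Rango (snurportin 1 IBB between N-terminal EYFP and C-terminal Cerulean), 50 nM in PBS/1 mM DTT/0.02% Tween-20/0.1% BSA, preincubated 5 min RT with compound; 0.125 microM importin beta added, 45 min RT, CFP/YFP FRET ratio read.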
miR-21 reporter: qHTS Assay for Modulators of miRNAs and/orActivators of miR-21; AID 2288, 2010; 340,000 tested, under 10 active; Potency, µM (doses to about 38.3 µM), for the others: at the top dose reporter change, positive = more light; HeLa miR-21 FLuc reporter, luciferase, 48 h; active = well fitted rising curve with a large enough effect; inconclusive = small, poorly fitted or top-dose-only effect; inactive = no such curve, though single readings can be large or run the other way;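 further: % of control where 0% means no effect; miR-21 action dims this reporter so a rising signal means less miR-21 action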
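Luminescence from a firefly luciferase reporter carrying a miR-21 binding site downstream, stably expressed under a CMV promoter in HeLa cells that make miR-21 endogenously, reports miRNA modulation after 48 h compound exposure up to approximately 40uM final.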
An asterisk follows results filed as active; ? = inconclusive; nt = not tested or not shown; & = joins results of further samples. Not all compounds are listed (hit frequency here may not be typical).

SMILES	Rango dissoc inh	GLA inh pH 4.5	Rango complex inh	miR-21 reporter
CCN(CC(=O)NCc1cccs1)C(=O)c1ccc(N(C)S(=O)(=O)c2ccc(C)cc2)cc1	1%	nt	0.9%	nt
CCCCN(CCCNC(=O)C1CCN(C(=O)c2cc3sccc3n2C)CC1)Cc1ccccc1	14%	nt	-0.4%	8%
Cc1cc(C)nc(OC(C(=O)O)C(OCCc2ccccc2)(c2ccc(F)cc2)c2ccc(F)cc2)n1 (centres undefined)	0%	nt	-3.8%	26%
O=C(CCSCc1ccccc1Cl)NC1CCCCC1	-2%	-3	-1.3%	2%
Cc1cc(C)cc(C(=O)NCC(=O)N(C)CCOc2ccccc2)c1	1%	nt	-0.5%	nt
O=c1c(-c2ccc(Cl)cc2)[n+]([O-])c2ccccc2n1OCc1nc2ccccc2[nH]1	-17%	2	0.3%	-30%
COc1cccc(C2Nc3ccc4ccccc4c3C3=C2C(=O)CCC3)c1O (centres undefined)	?	nt	2.3%	-5%
COc1ccc(CCNC2CC(=O)N(CCc3ccc(OC)c(OC)c3)C2=O)cc1 (centres undefined)	2%	-3	0.5%	4%
CN1CCN(C(=O)c2cn(-c3ccccc3)nc2-c2cccnc2)CC1	17%	-13	0.1%	-5%
COc1ccc(-c2cc(C(=O)N/N=C/c3cccnc3)c3ccccc3n2)cc1	0%	nt	3.8%	7%
CC(=O)Nc1nnc(-c2c(-c3c(Cl)cccc3Cl)noc2C)o1	9%	-3	9.3%	4%
COc1ccc(NC(=O)CN(C)C(=O)c2cccc(S(=O)(=O)N3CCN(C)CC3)c2)cc1	-1%	nt	-0.9%	nt
CC(C)Cc1nc2n[nH]c(N)c2c2c1COC(C)(C)C2	-5%	8	2.2%	-4%
CCOC(=O)C1=C(COC(=O)CNS(=O)(=O)c2ccc(C)cc2)NC(=O)NC1C (centres undefined)	-3%	nt	-0.5%	-5%
CC(C)NC(=O)Cn1c(SCC(=O)N2CCCCCC2)nc2ccccc21	2%	3	-2.1%	0%
COc1ccc(S(=O)(=O)NCC(c2ccco2)N2CCOCC2)cc1 (centres undefined)	1%	nt	-0.9%	3%
COc1ccc(C=NNc2ccc([N+](=O)[O-])cn2)cc1	-29%	nt	?	nt
CCOC(=O)c1sc2nc(CSc3nc4ccccc4n3CC)[nH]c(=O)c2c1C	-18%	-1	-2.2%	1%
O=C(COC(=O)C12CC3CC(CC(O)(C3)C1)C2)NC12CC3CC(CC(C3)C1)C2	0%	-10	-2.6%	-6%
COc1ccc(CCC(=O)N/N=C(\C)c2ccc3c(c2)OCO3)cc1	0%	nt	1.4%	0%

An excerpt of these results, field by field:
Structure: CCCCN(CCCNC(=O)C1CCN(C(=O)c2cc3sccc3n2C)CC1)Cc1ccccc1
  Rango dissoc inh: 14% | GLA inh pH 4.5: nt | Rango complex inh: -0.4% | miR-21 reporter: 8%

Structure: Cc1cc(C)nc(OC(C(=O)O)C(OCCc2ccccc2)(c2ccc(F)cc2)c2ccc(F)cc2)n1 (centres undefined)
  Rango dissoc inh: 0% | GLA inh pH 4.5: nt | Rango complex inh: -3.8% | miR-21 reporter: 26%

Structure: O=C(CCSCc1ccccc1Cl)NC1CCCCC1
  Rango dissoc inh: -2% | GLA inh pH 4.5: -3 | Rango complex inh: -1.3% | miR-21 reporter: 2%

One compound at a time, as listed above. Values in the order: Rango dissoc inh, GLA inh pH 4.5, Rango complex inh, miR-21 reporter
CN1CCN(C(=O)c2cn(-c3ccccc3)nc2-c2cccnc2)CC1 across the screens: 17%, -13, 0.1%, -5%
Cc1cc(C)nc(OC(C(=O)O)C(OCCc2ccccc2)(c2ccc(F)cc2)c2ccc(F)cc2)n1 (centres undefined) across the screens: 0%, nt, -3.8%, 26%

Next compounds
SMILES	Rango dissoc inh	GLA inh pH 4.5	Rango complex inh	miR-21 reporter
Cc1ccc2cc(S(=O)(=O)NCCCC(=O)O)ccc2c1	-5%	2	4.7%	-1%
Cc1ccc(OCCC(=O)OCC(=O)NC2CCCC(C)C2C)cc1 (centres undefined)	6%	nt	2.8%	nt
Cc1ccc(N/N=C(\C#N)C(N)=S)c(C)c1	-8%	1	-0.5%	-20%
CCSc1nnc(NC(=O)C2(C)Cc3ccccc3C(=O)O2)s1 (centres undefined)	-9%	6	2.1%	0%
CCCCN1CC(=O)N2[C@H]3c4ccc(OC)cc4OC[C@@H]3[C@H](C(=O)OCC)[C@]2(C)C1=O	-3%	nt	1.0%	nt
CCOc1cc(/C=C(\C#N)c2nc3ccccc3[nH]2)ccc1OC(C)C(=O)O (centres undefined)	-15%	nt	2.8%	-59%
Cc1ccc(S(=O)(=O)c2c(COC(=O)c3cccc(Cl)c3)c(-c3ccccc3)nn2C)cc1	-5%	0	0.1%	4%
COc1ccc(NC(=O)COC(=O)CC2CCCCC2)cc1	1%	nt	1.9%	nt
O=C(c1cc2c(s1)CCCCC2)N1CCN(c2ncccn2)CC1	1%	1	1.2%	-25%
CSC(=S)NN=C(C)c1cccc(C)n1	3%	nt	-3.6%	nt
Cc1ccccc1NC(=S)NC(NC(=O)COc1ccccc1)C(Cl)(Cl)Cl (centres undefined)	-5%	0	?	1%
O=[N+]([O-])c1cccnc1N1CCCCC1	-3%	-1	2.4%	0%
CCOC(=O)N1CCN(C(=O)/C=C/c2ccc(C(C)(C)C)cc2)CC1	0%	nt	2.6%	-1%
COc1ccc(N2CCN(Cc3cc(OC)c(O)c([N+](=O)[O-])c3)CC2)cc1	-13%	-7	4.1%	-5%
COc1ccc(C(C[N+](=O)[O-])n2nc(C)cc2C)cc1 (centres undefined)	24%	-3	2.5%	-2%
CNC(=O)c1cc2c(-c3ccccc3)nn(C)c2s1	46%	nt	-0.2%	19%
Cn1cccc1/C=N/NC(=O)c1cc(-c2cccs2)nc2ccccc12	-14%	16	?	7%
COc1ccc(CNC(=O)COC(=O)c2ccc(S(=O)(=O)NCc3ccco3)cc2)cc1	1%	nt	0.8%	nt
COc1cc(CC(=O)Nc2ccccc2N2CCCCC2)cc(OC)c1OC	1%	7	?	-3%
Cc1ccc(N2CC(c3nc4ccccc4n3C)CC2=O)cc1 (centres undefined)	-11%	10	0.3%	-11%
C/C(=C1\SC(N2CCOCC2)=NC1=O)c1ccccc1	0%	7	-2.2%	-24%
Cc1ccc(SCCN2CCC(O)CCC2=O)cc1 (centres undefined)	28%	nt	-0.2%	-25%
CC(Nc1ncnc2ccccc12)c1ccccc1 (centres undefined)	-14%	nt	-3.6%	17%
CCc1ccc(C2CC(c3ccc(C)cc3)n3nc(N)nc3N2)cc1 (centres undefined)	4%	nt	0.9%	nt
CCOC(=O)CC1=NS(=O)(=O)c2ccccc2N1	-14%	11	?	0%
N#Cc1c(N)nc(SCC(=O)OCc2ccccc2)c(C#N)c1-c1ccco1	?	-4	?	-3%
O=C1CCC(C(=O)N2CCCC(C(=O)c3ccc4c5c(cccc35)CC4)C2)=NN1 (centres undefined)	1%	8	-3.1%	15%
CCOC(=O)C(C(=O)OCC)=C1OC(=O)c2ccccc21	0%	1	-0.7%	-2%
COc1ccc(C2=NN(C(=O)c3cccs3)C(c3ccccc3O)C2)cc1 (centres undefined)	18%	5	2.0%	-12%
CCc1ccc2[nH]c3nc(N/N=C/c4ccc(O)cc4O)nnc3c2c1	17%	nt	14%	21%
CCn1ncc(C2=NOC(C(=O)N3CCN(c4ccccc4)CC3)C2)c1C (centres undefined)	19%	-2	-2.4%	-1%
COc1ccccc1C1/C(=C(/O)c2ccc(Cl)cc2)C(=O)C(=O)N1CCN1CCOCC1 (centres undefined)	-17%	3	-0.1%	-6%
O=C(NCc1ccc(F)cc1)C(=O)NCC1CCCN1S(=O)(=O)c1ccccc1 (centres undefined)	24%	nt	-2.9%	nt
COc1cc(/C=C2\SC(N3CCc4ccccc4C3)=NC2=O)cc(OC)c1OC	3%	-17	-2.1%	-8%
COc1ccc(C(=O)COC(=O)CCn2nnc(-c3cccs3)n2)cc1	-7%	-11	0.6%	-6%
Cc1cc(C(=O)Nc2ccccn2)no1	3%	-4	0.1%	-43%
CC1CCN(C(=S)c2ccc(N(C)C)cc2)CC1	21%	2	6.5%	-27%
O=C(CSc1nnc(-c2ccncc2)n1Cc1ccccc1)Nc1nccs1	-12%	6	2.0%	-6%
CCOC(=O)C1CCCN(CCC(=O)Nc2cc(OC)ccc2OC)C1 (centres undefined)	-12%	nt	-0.5%	-5%
Fc1nc(F)c(F)c(NCCCNc2c(F)c(F)nc(F)c2F)c1F	0%	-12	-2.9%	?

An excerpt from above in order of molecular weight, smallest number first.
SMILES	Rango dissoc inh	GLA inh pH 4.5	Rango complex inh	miR-21 reporter
CN1CCN(C(=O)c2cn(-c3ccccc3)nc2-c2cccnc2)CC1	17%	-13	0.1%	-5%
COc1ccc(C2=NN(C(=O)c3cccs3)C(c3ccccc3O)C2)cc1 (centres undefined)	18%	5	2.0%	-12%
COc1ccc(-c2cc(C(=O)N/N=C/c3cccnc3)c3ccccc3n2)cc1	0%	nt	3.8%	7%
O=C(NCc1ccc(F)cc1)C(=O)NCC1CCCN1S(=O)(=O)c1ccccc1 (centres undefined)	24%	nt	-2.9%	nt
CCCCN1CC(=O)N2[C@H]3c4ccc(OC)cc4OC[C@@H]3[C@H](C(=O)OCC)[C@]2(C)C1=O	-3%	nt	1.0%	nt

(next part)
SMILES	Rango dissoc inh	GLA inh pH 4.5	Rango complex inh	miR-21 reporter
O=c1[nH]c(C2CCN(S(=O)(=O)c3ccc4c(c3)OCCO4)CC2)nc2c1nnn2Cc1c(F)cccc1Cl	-10%	nt	7.2%	10%
O=C(Nc1cc2c3c(c1)CC(=O)N3CCC2)c1cccc(F)c1	0%	nt	0.2%	nt
NC(=O)C1CCN(C(=O)C(=O)c2cn(CC(=O)N3CCCC3)c3ccccc23)CC1	-5%	nt	-0.4%	1%
Nc1nc(=O)n(C2CCCCO2)cc1Br (centres undefined)	-12%	nt	-0.1%	nt
NC(=O)c1ccc(NC(=O)COC(=O)c2ccc([N+](=O)[O-])cc2)cc1	-12%	-3	5.0%	-1%
COc1ccccc1Nc1nc(C)c(C(=O)Nc2ccccc2)s1	-2%	-26	-2.8%	-20%
CCn1c2ccccc2c2cc(/C=N/NC(=O)c3ccccc3C)ccc21	-18%	5	0.8%	14%
CCCCN(C)CCNC(=O)C1CCCN(S(=O)(=O)c2cccc3nsnc23)C1 (centres undefined)	-6%	nt	3.4%	0%&-1%
COc1ccc(N(CC(=O)NCc2ccccc2OC)S(=O)(=O)c2ccccc2[N+](=O)[O-])c(OC)c1	5%	4	8.4%	1%
CCOc1cc(C2NN=C(c3ccccc3)S2)ccc1OCc1ccc(F)cc1 (centres undefined)	-3%	8	0.2%	-48%
O=C(c1cc(Cl)cc(Cl)c1)N1CCC2CC1c1cc(-c3ccc4c(c3)OCO4)ccc12 (centres undefined)	12%	nt	-5.8%	nt
CCCn1nc(NC(=O)C(C)C)c2cc3cc(OC)ccc3nc21	?	nt	?	-2%
CCN1C(=O)[C@H]2[C@@H](c3ccc(Cl)cc3)N3C(=O)CN(Cc4ccccc4)C(=O)[C@@]3(C)[C@H]2C1=O	-6%	nt	0.7%	0%
CCOC(=O)c1nc(Nc2ccc(N3CCOCC3)cc2)c2ccccc2n1	2%	nt	0.4%	4%
CCn1cc(C(=O)N2CCN(c3ccc(OC)cc3)CC2)c(=O)c2cc(S(=O)(=O)N3CCOCC3)ccc21	-16%	nt	0.8%	4%&-5%
COc1ccccc1NC(=O)C(C)OC(=O)CCSc1ccc(F)cc1 (centres undefined)	4%	nt	0.8%	nt
O=C(O)c1cc(NS(=O)(=O)c2cccc3nsnc23)cc(C(=O)O)c1	4%	nt	-0.7%	-2%
